# Assay outcomes from PubChem BioAssay.
# Measles inh = inhibitors of measles virus growth in infected cells; AID 745; actives 0.1% (n = 33,000); z-score (no concentration beside the values); infected Vero cells, GFP fluorescence, 64 h; hits give low values;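 active = z-score under -3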;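 note: score is relative to mean and SD of the compound wells of a plate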
# An asterisk follows results filed as active.
SMILES,Measles inh
CCOc1ccc(NS(=O)(=O)c2ccc(N=Cc3cccc(OC)c3O)cc2)cc1,-0.59
COC(=O)C1=C(C)NC2=C(C(=O)CCC2)C1c1cc(Cl)c(O)c(OC)c1 (centres undefined),-0.29
CC1CCCC(NC(=O)C2c3ccccc3C(=O)N2Cc2ccccc2Cl)C1C (centres undefined),-0.19
COC(=O)CSc1nc2ccccc2nc1Cc1cccc([N+](=O)[O-])c1,-2.1
O=C(CN(Cc1ccc(Br)cc1)S(=O)(=O)c1ccccc1)NC1CCCCC1,-0.7
C=CCN(c1ccccc1)S(=O)(=O)c1ccc2[nH]cc(C(=O)NCc3ccccc3)c(=O)c2c1,-0.49
Cc1ccc(NC(=O)Cn2c(C)nc3sc4c(c3c2=O)CCCC4)c(Br)c1,-0.05
Fc1ccc(C2C=C(c3ccc(Cl)cc3)Nc3nnnn32)cc1 (centres undefined),0.26
Cc1cc2cc(CCNC(=O)C3CCCC3)c(=O)[nH]c2cc1C,0.25
CCOC(=O)c1c(N)n(-c2ccccc2)c2nc3ccccc3nc12,2.6
COc1ccc(Cn2c(=S)[nH]c3cc(C(=O)NCc4ccc(F)cc4)ccc3c2=O)cc1,-0.44
CC(C)CCSc1nc2sc3c(c2c(=O)n1Cc1ccccc1)CC(C)(C)OC3,0.39
Cc1ccc(-c2n[nH]c(=O)c3ccccc23)cc1S(=O)(=O)NC(C)c1ccccc1 (centres undefined),-0.3
CC1(C)CC(=O)C2=C(C1)Nc1[nH]c(=O)[nH]c(=O)c1C2c1ccc(O)cc1 (centres undefined),-0.54
Cc1ccc(C(C)C)c(OCC(=O)N2N=C(c3ccc(Cl)cc3)CC2(O)C(F)(F)F)c1 (centres undefined),-2.5
Cc1ccc(-c2ccc(=O)n(CCC(=O)NCCN3CCN(c4cccc(Cl)c4)CC3)n2)cc1,-0.27
Cc1cc(NS(=O)(=O)c2ccc(NC(=O)Cc3ccccc3)cc2)nc(C)n1,-0.3
N#CC1(C#N)C(c2ccco2)NC23CCCCC2C1(C#N)C(=O)N3 (centres undefined),1.9
CC(=O)c1ccc(NC(=O)c2ccc(-c3ccccc3[N+](=O)[O-])o2)cc1,1.1
Clc1ccc2nc(-c3cccs3)cn2c1,0.86
CCN1CCN(c2cc(C)c3cc(NC(=O)Cc4cccc(C)c4)ccc3n2)CC1,-1.5
O=C(NCCCc1nc2ccccc2[nH]1)c1ccc(Cl)cc1,1.1
COc1ccccc1CNS(=O)(=O)c1ccc2c(c1)CCCN2C(C)=O,0.82
CCN(CC)c1ccc(C2N(C(=O)N3CCOCC3)CCN2S(=O)(=O)c2ccc(C)cc2)cc1 (centres undefined),-0.24
O=C1NN(c2ccccc2)C(=O)C2C3C=CC(C4CC34)C12 (centres undefined),-1.2
CCC(=O)N1CCc2cc(S(=O)(=O)N3CCCCCC3)ccc21,-0.51
COC(=O)c1ccc(NC(=O)c2cccc([N+](=O)[O-])c2)cc1,1.2
COc1ccc(N2CCN(C(=O)Cn3ccc4ccccc4c3=O)CC2)cc1,-0.37
COCCCNC(=O)c1cnn2c(C)c(Cc3cccc(C)c3)c(C)nc12,-0.66
CCN1CCN(CCCNC(=O)c2cc3cc4ccc(C)cc4nc3o2)CC1,-1.2
CC(=O)N1c2c(cc(Br)cc2S(=O)(=O)Nc2ccc(Cl)c(C(F)(F)F)c2)CC1C (centres undefined),-0.65
Oc1ccc(Br)cc1C=Nc1ccc(Br)cc1,0.35
COc1ccccc1-c1csc(NC(=O)c2ccc(S(=O)(=O)N3CCCCC3)cc2)n1,-0.85
COc1cc(C(=O)Nc2ccc3oc(-c4ccc(C(C)(C)C)cc4)nc3c2)cc(OC)c1OC,-0.89
CCC(=O)N1CCc2cc(S(=O)(=O)NCCCOC(C)C)ccc21,1
CN1C2=C(C(=O)CC(C)(C)C2)C(c2ccccc2OCc2ccc(F)cc2)C2=C1CC(C)(C)CC2=O,0.56
O=C(NCCn1cc(SCC(=O)N2CCc3ccccc32)c2ccccc21)c1cccs1,0.34
COc1cc2[nH]c(=S)n(CCN3CCCCC3C)c(=O)c2cc1OC (centres undefined),-0.48
CCS(=O)(=O)N(C)c1ccc([N+](=O)[O-])cc1,0.56
COc1ccc(-c2c(C(F)(F)F)oc3cc(OC(=O)c4ccc(F)cc4)ccc3c2=O)cc1OC,-0.14
COc1ccccc1NC(=O)C1=C(C)NC(=O)NC1c1ccc(OC)c(OC)c1 (centres undefined),-0.75
O=C(CN(c1cc(C(F)(F)F)ccc1Cl)S(=O)(=O)c1ccccc1)N1CCOCC1,-0.52
COc1ccc(C2NC(=O)NC(C)=C2C(=O)OC2CCC(C)CC2)c(OC)c1 (centres undefined),-1.3
CCCCN(C)S(=O)(=O)c1ccc(C(=O)Nc2nc(-c3ccncc3)cs2)cc1,-0.13
COc1ccc(C2C(C(=O)Nc3cc(OC)ccc3OC)c3ccccc3C(=O)N2Cc2ccc(F)cc2)cc1 (centres undefined),0.03
CCOc1cccc(-c2cc(C(=O)O)c3ccccc3n2)c1,1.1
O=C(CCCCCn1c(=O)[nH]c2ccsc2c1=O)N1CCN(c2cccc(C(F)(F)F)c2)CC1,-0.87
Cc1ccc(C(=O)CC2(O)C(=O)Nc3c(C)cccc32)cc1 (centres undefined),0.3
Cc1cc2c(=O)oc(-c3cccc4ccccc34)nc2s1,0.82
CCC1CCCCN1c1nc(-c2ccc([N+](=O)[O-])cc2)nc2ccccc12 (centres undefined),-0.11
Cc1[nH]n(C(C)(C)C)c(=O)c1Sc1ccc(Cl)cc1,-0.22
CN1CCN(c2ccc(C(=O)O)cc2[N+](=O)[O-])CC1,0.12
COc1ccc(C=Nc2c(C)n(-c3ccccc3)c(=O)n2C)cc1,0.58
CCOC(=O)C1=C(C)Nc2ncnn2C1c1sccc1C (centres undefined),-0.01
O=C1CCCC2=C1C(c1cccnc1)c1c(nc(SCc3ccc([N+](=O)[O-])cc3)[nH]c1=O)N2 (centres undefined),1.2
CCc1ccc(NC(=O)CSc2nc3ccccc3c3nc4ccccc4n23)cc1,0.6
CCS(=O)CCSc1nc(-c2ccccc2)cc(-c2ccccc2)c1C#N (centres undefined),0.41
COCCCNC(=O)C1CCCN(S(=O)(=O)N2CC(C)CC(C)C2)C1 (centres undefined),0.97
Cc1ccccc1OCCNc1cc(N2CCCCC2)ccc1[N+](=O)[O-],-0.29
O=C(CCC(=O)c1ccc(Cl)cc1)OCC(=O)c1ccc(Cl)cc1,-0.36

# A draw from above in order of count of non-hydrogen atoms, rising.
SMILES,Measles inh
O=C(CCC(=O)c1ccc(Cl)cc1)OCC(=O)c1ccc(Cl)cc1,-0.36
Cc1ccccc1OCCNc1cc(N2CCCCC2)ccc1[N+](=O)[O-],-0.29
CCS(=O)CCSc1nc(-c2ccccc2)cc(-c2ccccc2)c1C#N (centres undefined),0.41
O=C1CCCC2=C1C(c1cccnc1)c1c(nc(SCc3ccc([N+](=O)[O-])cc3)[nH]c1=O)N2 (centres undefined),1.2

# Arranged by the number under Measles inh (largest number first): some entries from above.
SMILES,Measles inh
CCC(=O)N1CCc2cc(S(=O)(=O)NCCCOC(C)C)ccc21,1
CC(C)CCSc1nc2sc3c(c2c(=O)n1Cc1ccccc1)CC(C)(C)OC3,0.39
O=C(CN(c1cc(C(F)(F)F)ccc1Cl)S(=O)(=O)c1ccccc1)N1CCOCC1,-0.52

# Carrying on:
SMILES,Measles inh
O=C1NC2NC(=O)N(C3CCCCC3)C2N1 (centres undefined),0.06
CCn1cc(CNC(=O)c2cc(-c3ccc(C)cc3)nc3ccc(Br)cc23)c(C)n1,-0.68
CCC(=O)N1CCc2cc(S(=O)(=O)CCC(=O)Nc3ccc(C)cc3Br)ccc21,-0.45
CCc1ccc(NC(=O)Cn2c(=O)n(-c3ccc(F)cc3)c(=O)c3sccc32)cc1,-1
O=C(Nc1ccccc1)c1ccn[nH]1,-0.38
O=C(Nc1ccc2oc(-c3ccccc3Cl)nc2c1)c1cccnc1,-1.7
CNC(=O)c1ccc(NC(=O)Nc2ccccc2)cc1,3.2
O=C(Nc1ccccc1)c1c2c(nc3ccccc13)-c1ccccc1CC2,-0.93
CC(=O)c1cccc(NC(=O)c2sc3nc(-c4ccccc4)cn3c2C)c1,1.7
CC12CC(NC(=O)N1c1ccccc1Cl)c1cc([N+](=O)[O-])ccc1O2 (centres undefined),-0.47
Cn1c(=O)[nH]c(=O)c2c1nc(SCc1ccccc1)n2CC(N)=O,0.17
CC1=C(C(=O)OC(C)C)C(c2cn(-c3ccccc3)nc2-c2ccc(F)cc2)C(C(=O)OC(C)C)=C(C)N1,-0.4

# Shown bar-delimited: entries from further up.
SMILES | Measles inh
CNC(=O)c1ccc(NC(=O)Nc2ccccc2)cc1 | 3.2
O=C(Nc1ccccc1)c1c2c(nc3ccccc13)-c1ccccc1CC2 | -0.93

# Additional records follow:
SMILES,Measles inh
C=C(C)CSc1nnc2n(-c3ccccc3)c(=O)c3c(C)c(C)sc3n12,1.2
Cn1c(=O)c2c(nc(NCCCO)n2Cc2cccc(Br)c2)n(C)c1=O,0.91
O=C(CCS(=O)(=O)c1cccc2nonc12)NCCc1ccc(Cl)cc1,3.1
O=C(O)CCCCCNC(=O)c1ccc(Br)cc1,0.89
CC(C)COC(=O)C1C2C=CC3(CN(Cc4ccccc4)C(=O)C13)O2 (centres undefined),-0.53
Cc1c(Cl)cccc1N1C(=O)C(N2C(=O)c3ccc([N+](=O)[O-])cc3C2=O)C1c1cccc(F)c1 (centres undefined),0.69
Cc1ccc(Nc2cc(N3CCCC(C)C3)c3nonc3c2[N+](=O)[O-])cc1C (centres undefined),-0.33
CCOC(=O)Cc1ccc(N(Cc2ccccc2Cl)S(=O)(=O)c2ccc3c(c2)OCCO3)cc1,-0.07
CCCCn1c(-c2ccccc2)nc(=S)c2c1CCCC2,0.94
Cc1ccc(C2C(=O)N(C3CCCCCC3)CC(=O)N2C2CCCCCCC2)cc1 (centres undefined),0.2
C=CCn1c(CCCNC(=O)c2ccccc2)nc2ccccc21,0.13
CCOC(=O)C1CCN(C(=O)c2cc3nc(-c4cccs4)cc(C(F)(F)Cl)n3n2)CC1,0.96
COc1cc(C2NC(=O)N(C)C(C)=C2C(=O)OCc2ccccc2)cc(Cl)c1O (centres undefined),-0.22
CC1(C)COC(c2ccccc2)=N1,2.5
Cc1cc(=O)oc2cc3oc(=O)cc(C)c3cc12,-0.09
Cc1c(C(=O)Nc2ccc(N3CCCC3)c(Cl)c2)cccc1[N+](=O)[O-],0.83
COc1ccc([N+](=O)[O-])cc1NC(=O)C1CC(=O)N=C(N)S1 (centres undefined),0.03
C=CCSC1=NC(c2ccccc2Cl)C=C(c2ccccc2)N1 (centres undefined),-1
CCOC(=O)c1cc2c(=O)n3ccccc3nc2n(Cc2ccco2)c1=NC(=O)c1c(OCC)ccc2ccccc12,-0.74
CCN(Cc1ccccc1)C(=O)Cn1c(=O)n(-c2ccc(F)cc2)c(=O)c2sccc21,1.6
O=C(Nc1ncccc1Cl)C(Sc1ccccc1)c1ccccc1 (centres undefined),-0.61
O=C(O)c1cnc2ccccc2c1,-0.47
CCOC(=O)c1cc(CC)sc1N1C(=O)CC(Sc2ccccc2C(=O)O)C1=O (centres undefined),0.58
O=C(C1CCC1)N1CCc2cc(S(=O)(=O)NC3CCCCCC3)ccc21,0.66

# Retrieved one by one from above, three records:
SMILES,Measles inh
CCOC(=O)c1cc(CC)sc1N1C(=O)CC(Sc2ccccc2C(=O)O)C1=O (centres undefined),0.58
COc1ccc([N+](=O)[O-])cc1NC(=O)C1CC(=O)N=C(N)S1 (centres undefined),0.03
CCOC(=O)c1cc2c(=O)n3ccccc3nc2n(Cc2ccco2)c1=NC(=O)c1c(OCC)ccc2ccccc12,-0.74

# More results follow.
SMILES,Measles inh
CCN(C(=O)c1ccc(N2CC3CC(C2)c2cccc(=O)n2C3)c(NC(=O)c2ccc(F)cc2)c1)c1cccc(C)c1 (centres undefined),-0.24
COc1cc([N+](=O)[O-])ccc1NC(=O)CSc1ccccc1C(=O)O,0.48
CCc1ccc(NS(=O)(=O)c2ccc3[nH]cc(C(=O)NCc4ccccn4)c(=O)c3c2)cc1,0.39
COc1ccc(-n2ccnc2SCC(=O)Nc2ccc(C)cc2)cc1,-0.33
CCc1ccc(NC2=CC(=O)CC(c3ccc(OC)c(OC)c3)C2)cc1 (centres undefined),-0.13
Cc1ccc(NC(=O)CSc2ncccc2C(=O)Oc2cccc([N+](=O)[O-])c2)cc1Cl,-1.8
CCCc1cc(NCCN(C)C)n2c(nc3ccccc32)c1C#N,-0.62
CCOC(=O)c1cnc2c(C)cc(C)cc2c1Nc1cccc(C(F)(F)F)c1,0.08
CC1CCCCC1NC(=O)C1CCCN(S(=O)(=O)c2cccs2)C1 (centres undefined),-0.58
O=c1c2c(-c3ccccc3)csc2nc2c3ccccc3c(N3CCCCC3)nn12,-0.14
CCC1Oc2ccccc2N(CC(=O)N2CC(C)CC(C)C2)C1=O (centres undefined),1.4
O=C1c2ccccc2NC(c2ccc(Br)cc2)N1Cc1ccccc1 (centres undefined),0.66
Cc1ccc(S(=O)(=O)Nc2ccc3oc(C)c(C(=O)OC(C)C)c3c2)cc1[N+](=O)[O-],-0.13
NS(=O)(=O)c1ccc(CCNC(=O)c2cc(-c3ccc(Br)s3)nc3ccccc23)cc1,-0.61
Cc1ccc(NC(=O)CCN2CCCCC2)cc1Br,0.17
Cc1ccc(C2CC(=O)C3=C(C2)Nc2ccccc2N(C(=O)Cc2cccs2)C3c2ccco2)cc1 (centres undefined),-0.25
O=C(Nc1nc2ccccc2s1)C(=O)Nc1nc2ccccc2s1,0.9
Cc1ccccc1-c1c(C)oc2c(C)c(O)ccc2c1=O,-1
CC1(C(=O)O)NC(c2cc(Br)ccc2O)C2C(=O)N(c3ccccc3)C(=O)C21 (centres undefined),-0.4
COc1ccc2nc(NC(=O)c3cn(C)c(=O)c4c3c3ccccc3n4C)sc2c1,-1
O=C1COc2ccccc2N1Cc1ccccc1Cl,0.72
COc1cc(CNC(=O)c2ccc(C(=O)c3ccccc3)cc2)cc(OC)c1OC,-1
COc1ccc(Nc2nc(-c3ccc(C)cc3)nc3ccccc23)cc1OC,-1.9
CCOC(=O)c1ccc2c(c1)N(Cc1ccc(F)cc1)C(=O)c1ccccc1S2,-0.69
O=C(NCc1cccs1)C1CCC(CNS(=O)(=O)c2ccccc2)CC1 (centres undefined),0.23
CCOc1ccc(NC(=O)c2c(NC(=O)c3ccc(Br)cc3)sc3c2CCC3)cc1,0.85

# Some of the compounds tested; count on the stated rates, not on these rows.
